Screening results as filed in PubChem BioAssay.
CSC inhib: blocks cancer stem cells; cancer stem cell-like cells viability, luminescence; inhibition, % at 7.5 µM; 300,000 tested, 1.1% active; AID 2717;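 active means mean at 75% or more and at least half the replicates too; inconclusive means mean and replicates disagree; tested in HMLE shEcad cells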;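 further: 0% = median of negative and 100% = median of positive control wells; the first replicate is given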
PABP FP inh: PABP-poly(A) binding inhibition. inhibition, % at 35 µM. P11940. PABP-poly(A) RNA binding, fluorescence polarization. 290,000 tested, 1% active;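 active means 50% or more with normal probe brightness, or confirmed in later tests; inconclusive means above 50% with abnormal brightness, or retests that disagree; inactive means below 50% or failed in later tests; about a fifth of its hits are not listed in these tables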;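 further: calls also rest on retests at 20 µM and on dose response follow-up; controls were probe without protein and protein plus probe with vehicle; some compounds called inactive have numbers as strong as hits; many hits fall short of the cut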
Target sequence (P11940 whole entry, looked up): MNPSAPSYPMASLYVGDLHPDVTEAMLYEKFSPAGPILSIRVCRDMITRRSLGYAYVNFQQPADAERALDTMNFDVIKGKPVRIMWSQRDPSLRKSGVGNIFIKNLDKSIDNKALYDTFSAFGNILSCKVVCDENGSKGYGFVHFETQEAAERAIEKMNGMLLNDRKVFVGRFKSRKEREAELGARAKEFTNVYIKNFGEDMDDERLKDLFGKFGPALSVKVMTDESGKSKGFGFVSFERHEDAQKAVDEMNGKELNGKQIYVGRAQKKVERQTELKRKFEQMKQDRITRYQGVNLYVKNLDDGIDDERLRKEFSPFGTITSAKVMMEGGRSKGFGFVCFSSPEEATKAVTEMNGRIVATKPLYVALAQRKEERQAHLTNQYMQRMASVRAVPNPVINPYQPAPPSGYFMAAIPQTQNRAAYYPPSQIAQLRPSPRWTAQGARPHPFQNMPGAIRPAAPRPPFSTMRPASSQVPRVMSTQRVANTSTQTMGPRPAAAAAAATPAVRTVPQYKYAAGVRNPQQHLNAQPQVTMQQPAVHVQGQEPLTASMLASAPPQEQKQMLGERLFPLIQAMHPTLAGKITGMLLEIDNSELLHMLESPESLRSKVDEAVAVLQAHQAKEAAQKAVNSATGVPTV
Rce1 inhib: inhibitors of yeast Ras-converting enzyme; yeast membranes, quenched prenylated peptide cleavage fluorescence; AID 2563; calls only; 290,000 tested, 0.27% active; Q03530;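 active means fall in fluorescence gain of 50% or more versus controls, with final raw signal at or below 3038400; inconclusive means same 50% fall but final raw signal above 3038400; inactive means fall in fluorescence gain under 50%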;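 further: plate controls were neutral control wells for no effect and wells lacking membranes for full effect; tested at 10 µM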
eIF4H inh: inhibitors of RNA binding by human eIF4H. inhibition, % at 35 µM. eIF4H fluorescence polarization binding assay. 290,000 tested, 0.94% active. Q15056;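 active means 50% or more with normal probe brightness, or confirmed in later tests; inconclusive means above 50% with abnormal brightness, or retests that disagree; inactive means below 50% or failed in later tests; about a fifth of its hits are not listed in these tables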;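 further: calls also rest on retests at 20 µM and on dose response follow-up; 0% = protein and probe with vehicle and 100% = probe without protein; strong numbers were not always called active; many hits fall short of the cut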
MT1-MMP act inh: inhibitors of human MT1-MMP activation; P50281; HT1080 RFP-PRO-GFP cells, GFP/RFP ratio fluorescence, overnight; percent of plate control window, DMSO zero; GFP/RFP ratio change, % at 20 µM; 360,000 tested, 0.061% active; AID 651647;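 active means GFP/RFP ratio change of at least 30% with cell ATP level not reduced by more than half and red fluorescence within 50% of control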; further: strong numbers were not always called active
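Compound: 20 µM single dose, 1% DMSO / System: HT1080 RFP-PRO-GFP cells / Controls: DMSO and RFP-L50D-GFP cell wells / Read-out basis: GFP/RFP fluorescence ratio / Schedule: overnight compound exposure at 37 °C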
Env fusion inh: inhibitors of HIV Env-mediated cell fusion; inhibition, % at 12.3 µM; HeLa-JRFL Env/CEM21 cell fusion, luciferase; AID 651610; 360,000 tested, 1.1% active;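 active means mean replicate inhibition score of at least 50 and every replicate individually at or above 50; inconclusive means only one of the two criteria met; inactive means mean below 50 and not all replicates reaching 50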;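 further: 0% = plate neutral controls and 100% = maraviroc near 300 nM; one replicate is shown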
UUG fidelity: modulators of start codon recognition fidelity in yeast | S. cerevisiae UUG-firefly luciferase reporter, luminescence/redox ratio | activity score, % at 18.7 µM | 350,000 tested, 0.13% active;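 active means replicate mean at a twofold rise or more, about +100% in these data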;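 further: firefly luciferase made from a UUG start codon reports start codon fidelity; reporter light over untreated wells divided by growth signal over untreated wells; some hits fall short of that in this replicate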
eIF4H inh retest: second read-out of eIF4H inh, no call of its own (marks repeat the call); inhibition, %; compound at 20 µM; confirmation average;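 mean of two retest wells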
PABP FP inh retest: further read-out of PABP FP inh, marked with its call; inhibition, %; compound at 20 µM; confirmation repeats;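 mean of two retest wells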
MT1-MMP act inh RFP: also measured in MT1-MMP act inh; calls as there; RFP signal change, %; measured here: RFP expression control read;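 0 = vehicle wells; hits needed this value within 50% of zero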
The depositor's hits bear a star; i = inactive; ? = inconclusive; · = no result given; & = joins results of further samples.

SMILES	CSC inhib	PABP FP inh	Rce1 inhib	eIF4H inh	MT1-MMP act inh	MT1-MMP act inh RFP	Env fusion inh	UUG fidelity	others
O=C1C(=O)N(CCCn2ccnc2)C(c2ccc([N+](=O)[O-])cc2)/C1=C(\O)c1ccc2c(c1)OCCO2 (configuration not stated)	12	·	·	·	0	3	-9	-18
O=S(=O)(NCC(Nc1ccc(Cl)cc1)c1ccccc1)c1ccccc1 (configuration not stated)	63	-4	i	-5	-1	-4	·	-9
Cc1[nH]c2ccccc2c1/C=N/NC(=O)c1cccc(S(=O)(=O)Nc2ccccc2Cl)c1	-12	-2	i	5	-3	3	-1	-8
CCNS(=O)(=O)c1ccc(Br)c(OC)c1	-1	8	i	-8	4	4	·	-33
COc1ccc(N2CCN(C(=O)Cn3cnc4sc(C)c(S(=O)(=O)N5CCOCC5)c4c3=O)CC2)cc1	-6	-3	i	0	-2	-1	-10	-6
Cc1cccc(C(=O)O/N=C/c2c(Cl)n(C)c3ccccc23)c1	18	-11	i	-12	2	5	·	-9
CN1C(=O)C(=O)N(c2cccc(C(F)(F)F)c2)C1=O	-18	·	i	·	1	-1	4	·
O=C(N/N=C\c1cccnc1)c1cc(-c2ccc(Cl)s2)[nH]n1	17	3	i	-36	3	2	7	·
O=C(COc1ccc(-c2nnco2)cc1)N1CCN(S(=O)(=O)c2ccccc2)CC1	-3	3	i	5	-6	0	-111	4
C[C@H](CO)N1C[C@H](C)[C@@H](CN(C)CC2CCCCC2)Oc2c(NS(=O)(=O)c3ccc(F)cc3)cccc2C1=O	·	·	·	·	7	7	-125	11&5
COc1ccc(Cl)cc1N(CC(=O)N/N=C/c1ccc(OC(C)C)cc1)S(=O)(=O)c1ccc(C)c([N+](=O)[O-])c1	32	4	i	0	6	4	·	·
COc1cc(CNCCO)cc(Br)c1OCc1cccs1	10	2	i	-8	5	0	·	·
O=C(N/N=C/c1nn(-c2ccccc2)cc1-c1ccccc1)c1ccncc1	26	-2	i	-1	-3	-3	·	·
COc1ccc(OC)c(C2/C(=C(\O)c3ccc(OC)c(Cl)c3)C(=O)C(=O)N2CCN(C)C)c1 (configuration not stated)	-14	-1	i	-4	-2	2	·	-27
CC(C)(C)C(=O)Nc1c2c(nn1-c1cccc(Cl)c1)CS(=O)(=O)C2	-39	-2	i	2	0	2	-2	-14
CCCCOCCCNC(=O)Cc1cccs1	-3	0	i	0	-5	2	·	-12
COc1ccc(NC(=O)COC(=O)c2cccc(S(=O)(=O)N3CCCCC3)c2)c(OC)c1	-5	·	·	·	0	4	-8	·
O=C(CN1CCN(S(=O)(=O)c2ccccc2)CC1)Nc1ccc(Cl)c([N+](=O)[O-])c1	7	·	i	·	0	-4	-5	9
N/C(=N\S(=O)(=O)c1cc(C(F)(F)F)cc(C(F)(F)F)c1)c1cccs1	-6	1	i	-2	5	0	-2	·
CCCCn1c(N)c(N(CC(C)C)C(=O)C2CCN(S(=O)(=O)c3ccc(C)c(C)c3)CC2)c(=O)[nH]c1=O	2	8	i	7	-10	-6	6	-9

Sorted by molecular weight (largest number first): some entries from above.
SMILES	CSC inhib	PABP FP inh	Rce1 inhib	eIF4H inh	MT1-MMP act inh	MT1-MMP act inh RFP	Env fusion inh	UUG fidelity	others
COc1ccc(Cl)cc1N(CC(=O)N/N=C/c1ccc(OC(C)C)cc1)S(=O)(=O)c1ccc(C)c([N+](=O)[O-])c1	32	4	i	0	6	4	·	·
C[C@H](CO)N1C[C@H](C)[C@@H](CN(C)CC2CCCCC2)Oc2c(NS(=O)(=O)c3ccc(F)cc3)cccc2C1=O	·	·	·	·	7	7	-125	11&5
COc1ccc(OC)c(C2/C(=C(\O)c3ccc(OC)c(Cl)c3)C(=O)C(=O)N2CCN(C)C)c1 (configuration not stated)	-14	-1	i	-4	-2	2	·	-27
COc1ccc(NC(=O)COC(=O)c2cccc(S(=O)(=O)N3CCCCC3)c2)c(OC)c1	-5	·	·	·	0	4	-8	·
O=C(CN1CCN(S(=O)(=O)c2ccccc2)CC1)Nc1ccc(Cl)c([N+](=O)[O-])c1	7	·	i	·	0	-4	-5	9
O=C(COc1ccc(-c2nnco2)cc1)N1CCN(S(=O)(=O)c2ccccc2)CC1	-3	3	i	5	-6	0	-111	4
N/C(=N\S(=O)(=O)c1cc(C(F)(F)F)cc(C(F)(F)F)c1)c1cccs1	-6	1	i	-2	5	0	-2	·
COc1cc(CNCCO)cc(Br)c1OCc1cccs1	10	2	i	-8	5	0	·	·
O=C(N/N=C/c1nn(-c2ccccc2)cc1-c1ccccc1)c1ccncc1	26	-2	i	-1	-3	-3	·	·
O=C(N/N=C\c1cccnc1)c1cc(-c2ccc(Cl)s2)[nH]n1	17	3	i	-36	3	2	7	·
CN1C(=O)C(=O)N(c2cccc(C(F)(F)F)c2)C1=O	-18	·	i	·	1	-1	4	·
CCCCOCCCNC(=O)Cc1cccs1	-3	0	i	0	-5	2	·	-12

Continued:
SMILES	CSC inhib	PABP FP inh	Rce1 inhib	eIF4H inh	MT1-MMP act inh	MT1-MMP act inh RFP	Env fusion inh	UUG fidelity	others
C#CCOCCOCCOCCNc1nc(N2CCN(C(=O)Cn3cc(CCCCN)nn3)CC2)nc(N2CCN(C(=O)Cn3cc(CCCN=C(N)N)nn3)CC2)n1	-4	·	·	·	1	1	-22	-11
C=CCN(C(=O)c1csnn1)C(C(=O)NC1CCCCC1)c1ccc(C)cc1 (configuration not stated)	-4	-1	i	-11	-2	3	-1	-9
CN1CCS/C1=C/C=C1/SC(=S)N(Cc2ccccc2)C1=O	73	-9	i	?	-87	10	-7	·
Cc1c(N=C2N=C(NC(=O)c3cccs3)c3ccccc32)c(=O)n(-c2ccccc2)n1C	28	-13	·	?	-151	-3	3	·
COc1ccc(N2CCN(C(=O)CCCNC(=O)Cn3cnc4sc(C)c(C)c4c3=O)CC2)cc1	14	8	i	-4	-2	-10	20	-3
Cc1cc(Cl)ccc1NC(=O)Nc1c(C)n(-c2ccccc2)c(=O)n1C	·	-1	i	-1	-1	-1	17	·
CC1(C)CNC(=O)c2sc(N3CCCCC3)nc2C1	-12	4	i	6	1	4	-12	-12
O=C1N=C(N2C=CC(=C3C=CNC=C3)C=C2)/C(=C/N=NC(=O)c2ccccc2O)S1	3	·	i	·	-9	-1	1	-17
CC(=O)NCCc1ccc(S(=O)(=O)N2CCOCC2)cc1	0	-8	i	0	5	2	·	-12
COc1cc(/C=C2\SC(=Nc3ccc(F)cc3)N(c3ccc(F)cc3)C2=O)ccc1OCC(=O)O	-8	39	·	1	·	·	·	·
O=S(=O)(Nc1cccc2ncccc12)c1cccc(C(F)(F)F)c1	·	·	·	·	-2	-19	2	-17
CCOC(=O)CNC(=O)CSc1cc(C)nc2ccc(OC)cc12	-4	7	i	-4	2	2	2	·
COc1ccc(S(=O)(=O)N2CCSC2c2ccc(OC)c(OC)c2)cc1 (configuration not stated)	-10	6	·	-8	5	-8	-3	-8
CC1CCCN(CCCNC(=O)c2cc3c(Cl)nc4ccccc4c3s2)C1 (configuration not stated)	85*	3	i	2	4	0	-76	-9
O=C(Nc1ccc2cccnc2c1)c1ccc(Br)cc1	-5	-9	i	0	-1	4	-17	-29
CCCc1cc(C(=O)Nc2cccnc2)no1	-1	6	i	0	1	4	-10	-15
OC(COc1ccccc1)CN1CCN(Cc2ccc3c(c2)OCO3)CC1 (configuration not stated)	8	6	i	0	3	6	-15	·
O=C(CSc1ccc(-c2ccco2)nn1)Nc1ccccc1	3	20	i	91	7	3	-5	·	eIF4H inh retest=4;PABP FP inh retest=3
N#CCOc1nc(N2CCOCC2)nc(N2CCOCC2)n1	-3	3	i	1	13	14	-18	-18
COc1ccc(/C=N/NC(=O)c2ccc(N)cc2)cc1Cn1cc([N+](=O)[O-])cn1	-1	7	i	2	-3	-1	-15	-16
CNC(=O)COc1ccc(Cl)c2cccnc12	16	1	i	-6	2	1	-16	-16
CC(C)c1nc2n[nH]c(N)c2c2c1CCCC2	·	-4	i	-3	-4	-7	-264	-28
Cc1nc(N)nc(N)c1/C=C/C(C)(C)c1ccc(Cl)cc1	·	-12	i	-4	-22	-16	30	·
NC(=O)CSc1nnc(-c2ccc3c(c2)OCO3)o1	·	-4	i	5	-3	-5	-13	-39
CC(=O)Nc1ccc(CCCCc2ccc(NC(C)=O)cc2)cc1	·	·	·	·	1	-2	-14	-6
COc1ccc(OC)c(CNC(=O)c2[nH]c(C(F)(F)F)nc2-c2ccccc2)c1	·	·	·	·	-1	1	0	2
O=C(c1ccc(NS(=O)(=O)c2ccc(F)cc2)cc1)N1CCOCC1	·	·	i	·	4	0	·	-4
Oc1ccc(-c2[nH]ncc2-c2ccc(Cl)cc2)c(O)c1	33	5	i	-2	2	-9	-16	-8
CN(C(=O)COC(=O)c1ccc2c(=O)n3c(nc2c1)CCC3)C1CCS(=O)(=O)C1 (configuration not stated)	-31	-15	i	-6	3	7	-6	-8
Cc1cc(Cl)ccc1NC(=S)N1CCN(Cc2ccccc2)CC1	-6	-6	i	-10	1	-1	-11	-18
COC(=O)c1ccc(OCC(=O)NC(C)(C)C)cc1	-8	11	i	-1	4	6	·	-10
COc1ccc(NS(=O)(=O)CC(C)C)c(OC)c1	1	-4	i	-3	0	2	4	·
Cc1ccc(SCc2c(C(=O)N/N=C/c3ccc4c(c3)OCO4)nnn2-c2nonc2N)cc1	-5	5	i	-3	6	-2	-4	8
Cc1ccc(OCCn2cnc3cc([N+](=O)[O-])ccc3c2=O)cc1	3	-4	i	4	-3	-4	-1	-3
O=C(NCC(=O)N1CCN(Cc2ccccc2)CC1)c1cccs1	-16	·	·	·	0	-3	·	-45
O=C(O)CN1CCN(c2ncc(C(F)(F)F)cc2Cl)CC1	1	4	i	-6	0	1	6	1
COc1ccc(-c2nsc3c(SCc4ccccc4)ncnc23)cc1	3	-4	i	-4	2	-2	-16	·
COCCNc1nc(NCCCN2CCCC2=O)c2sccc2n1	·	·	·	·	5	5	-31	6
CCOC(=O)c1cc2c(ccn2C)n1CC(=O)N(Cc1ccccc1)c1ccccc1	-11	14	i	12	-6	-7	40	·
Cc1cc(C)nc(NS(=O)(=O)c2ccc(NC(=O)c3ccc(S(=O)(=O)N4CC(C)OC(C)C4)cc3)cc2)n1 (configuration not stated)	1	2	i	-5	0	4	14	·
CCOc1ccccc1C(=O)NCC(=O)OCc1c(C)noc1C	-3	-7	i	1	4	2	·	-14
Cc1cccc(C)c1OCC(=O)NNC(=S)NC(=O)C1CC1	12	-5	i	18	7	-1	32	-53
CC(=O)N/N=C/c1cc([N+](=O)[O-])ccc1OCCOc1ccccc1	-1	3	i	2	0	0	·	-10
Cc1cc(NC(=O)c2ccc3[nH]c(C)c(C)c3c2)ccn1	8	-10	i	2	12	-16	2	-2
O=C1N/C(=N\N=C\c2cccnc2)SC1Cc1ccc(SC(F)F)cc1 (configuration not stated)	99*	3	i	8	1	-1	17	-20
CCOC(=O)N1CCC(N2CCN(c3cc(C)ccc3C)CC2)CC1	5	2	i	3	3	2	·	·
Cn1c(=O)c2cc(S(=O)(=O)N3CCOCC3)ccc2n(C)c1=O	0	12	i	-1	-2	3	·	-21
CC1(C)CC(=O)C2=C(C1)N(c1ccccc1C#N)C(N)=C(C#N)C2c1cccs1 (configuration not stated)	5	25	i	15	8	2	·	·
